MgrA-DNA mod: S. aureus MgrA-DNA binding modulation. fluorescence polarization. inhibition, %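 (about 10 µg/mL by stock and volumes)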. 84,000 tested, 0.13% active;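 active = above 50% in either of two replicates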;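 also: 0% = protein plus DNA without compound and 100% = DNA alone without protein; higher means less MgrA bound to DNA so lower polarization; one replicate is shown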
S aureus helic: S. aureus DNA helicase inhibition; purified S. aureus helicase, fluorescence unwinding assay; about half of the hits fall short of the stated cut; inhibition, %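 (tested at about 80 µM)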; 120,000 tested, 0.05% active; AID 485395;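 active = both duplicates at 50% or more, or one of them with a favoured structure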;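 also: 0% = mean of negative control wells and 100% = mean of positive control wells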
An asterisk follows results filed as active; · = no result given. This is a subset. The share of hits here may be higher or lower than overall.

Every second line gives: MgrA-DNA mod, S aureus helic
CNC(=O)Cc1cc(=O)[nH]c(=O)[nH]1
  ·, 5
O=C(CN(Cc1ccco1)S(=O)(=O)/C=C/c1ccccc1)Nc1ccc(N2CCOCC2)cc1
  ·, 15
N#Cc1ccc(Cl)cc1NC(=O)CSc1ccccn1
  3.5, 1
CCN(CC)C(=O)c1cccc(C(=O)N(CC)CC)c1
  0.0, 11
CCn1cc(/C=C(/C#N)c2ccccc2Cl)c2ccccc21
  2.9, 12
CSc1ncnc2c1nnn2Cc1ccccc1
  1.1, ·
CC1CCN(C(=O)C2CCN(CC3CCCCC3)CC2)CC1
  -9.4, 17
CC(C)S(=O)(=O)/C(C#N)=C/c1cnc[nH]1
  -2.0, ·
CSc1nc(C)nc(N/C=C(\C#N)S(=O)(=O)c2ccc(C)cc2)n1
  -1.4, ·
COC(=O)c1c(OC)ccc(-n2cccc2)c1OC
  -1.4, ·
Cc1cc(C)nc(N(C#N)CC(=O)c2ccccc2)n1
  2.2, -12
Cc1ccc(Cn2c(NC(=O)c3cccs3)nc3ccccc32)cc1
  ·, 13
CCc1ccc(NC(=O)CN(C)S(=O)(=O)c2ccc3nc(-c4ccccc4)[nH]c3c2)cc1
  1.3, 5
CC(=O)Oc1cccc(C(=O)NC2CCCCC2)c1
  0.3, 4
CC(=O)Nc1cc(C(=O)N2CCN(C)CC2)ccc1S(=O)(=O)c1ccc(C)cc1
  1.5, 12
CC(C)Cc1cc(-c2ccccc2)c(C#N)c(N)n1
  ·, 10
c1coc(CNCc2cccc3ccccc23)c1
  -5.9, 15
Cc1ccc(C(C)C)c(OCC(O)CN(C)Cc2ccccc2)c1 (stereo unspecified)
  -1.0, -9
CCOC(=O)c1ccc2nc(C34CC5CC(CC(C5)C3)C4)ccc2c1
  1.5, 6
Nc1nc(-c2ccco2)nn1C(=O)c1ccc(Cl)cc1Cl
  -1.5, -1
COC(=O)c1nn(-c2ccc(-c3ccccc3)cc2)cc1O
  ·, -3
O=C1C2C3C=CC(C3)C2C(=O)N1CCN1CCN(S(=O)(=O)c2ccc(Br)cc2)CC1 (stereo unspecified)
  1.3, 4
Cc1cccc(C)c1NC(=O)CNCC(=O)Nc1c(C)cccc1C
  ·, -2
Cc1cc(C)nc(NC(=O)COc2ccc(Br)cc2)n1
  0.7, 7
CN(C)S(=O)(=O)c1ccc2nnn(OCC(=O)NCCC3=CCCCC3)c2c1
  ·, -9
Cc1cc(-n2c(C)cc(C(=O)COC(=O)C3CCCC3)c2C)no1
  ·, -15
Cc1ccc2nc(COC(=O)CSc3ncnc4c3oc3ccccc34)cc(=O)n2c1
  ·, 2
CN1NC(=O)CC1C(=O)Nc1sc2c(c1C#N)CCCC2 (stereo unspecified)
  0.3, -7
CC(=O)NS(=O)(=O)c1ccc(N=Cc2ccco2)cc1
  3.2, ·
CC(=O)Nc1ccc(C(=O)N/N=C/c2ccc(C)o2)cc1
  ·, 6
COc1cc(/C=C2\Oc3ccccc3C2O)cc(Cl)c1OC (stereo unspecified)
  -3.5, 6
O=c1cc(O)n(C2CCCC2)c(=S)[nH]1
  ·, 11
CC(OC(=O)c1cccc(C(F)(F)F)c1)C(N)=O (stereo unspecified)
  ·, -20
CCOc1cccc(=O)c2c(C)n(CC(=O)c3ccccc3)c(C)c12
  ·, -49
CC(C)(O)C#Cc1ccc(CO)cc1
  -3.1, ·
CC(OC(=O)c1ccccc1OC(F)F)C(=O)N1CCCc2ccccc21 (stereo unspecified)
  ·, 5
N#C/C(=C\Nc1cc(C(F)(F)F)cc(C(F)(F)F)c1)S(=O)(=O)Cc1ccc(Cl)cc1
  -1.8, ·
FC(F)(F)Oc1ccc(NC2=NCCC2)cc1
  ·, 3
COc1ccccc1C(=O)COC(=O)c1ccccc1O
  ·, 11
Cn1cc(C(=O)O)c(-c2ccc3c(c2)OCCCO3)n1
  ·, 7
O=C(Cc1cccs1)NCCc1cnc[nH]1
  -1.6, 8
CCOC(=O)c1cc(=O)c2ccc(O)cc2o1
  1.1, ·
Cc1ccccc1Nc1nc(N)nc(CN2CCC(C)CC2)n1
  ·, -11
Cc1c(C)n(CCN(C)C)c2ccc(C(=O)OCCN(C)C)cc12
  1.4, 21
CC1C(=O)C(C)C(c2ccc(N(C)C)cc2)NC1c1ccc(N(C)C)cc1 (stereo unspecified)
  -0.1, 17
Cc1ccc(Cc2cc(C)n[nH]c2=O)cc1
  -0.9, ·
CCN1CCC2(CC1)OC(=O)C(C)=C2C(=O)Nc1ccc(F)cc1
  ·, 6
CCn1c(SCC(N)=O)nc2c(c1=O)C1(CCCCC1)Cc1ccccc1-2
  ·, -2
CCc1ccc(N2C(=O)c3ccncc3C2=O)cc1
  1.6, 15
Cc1noc(/C=C/N2CCOCC2)c1S(=O)(=O)N(C)CC(=O)NC1CCCCC1
  ·, 17
CC(O)CN1C(=O)c2cccc3cccc(c23)C1=O (stereo unspecified)
  -0.2, ·
COc1ccc(CN2C(=O)CNC2=S)cc1
  -1.2, ·
Cn1ccc(/C=C2/CCC/C(=C\c3ccn(C)n3)C2=O)n1
  -0.8, 11
CCc1ccc(NC(=S)N(CCCN2CCCCC2)Cc2ccco2)cc1
  ·, -33
O=C(CSc1nc(-c2ccccc2)nc2c1CCCC2)N1CCCCC1
  ·, -15
FC(F)(F)Oc1ccc(-c2nnc(-c3cccnc3)o2)cc1
  -1.5, ·
CC(C)(C)NC(=O)NCc1ccco1
  ·, -32
Cc1cc(SCc2ccccc2)nc2ccccc12
  1.2, -5
CCC(C)NC(=O)c1cc(-c2ccccn2)nc2ccccc12 (stereo unspecified)
  0.2, -4
C/C(=C/C(=O)C(F)(F)F)N1CCN(c2ccccn2)CC1
  ·, 9

Random excerpt: 3 compounds from above, in no set order.
Every second line gives: MgrA-DNA mod, S aureus helic
CCC(C)NC(=O)c1cc(-c2ccccn2)nc2ccccc12 (stereo unspecified)
  0.2, -4
Cc1ccc(Cc2cc(C)n[nH]c2=O)cc1
  -0.9, ·
Cn1ccc(/C=C2/CCC/C(=C\c3ccn(C)n3)C2=O)n1
  -0.8, 11

Carrying on:
Every second line gives: MgrA-DNA mod, S aureus helic
O=C(NCc1ccccc1Cl)C1CCN(C(=O)c2ccco2)CC1
  -1.0, -1
CC1Cc2ccccc2N1C(=O)Cn1nc(-c2nccc3ccccc23)oc1=O (stereo unspecified)
  -1.4, 17
N#CC1=C(N)N(c2ccccc2)C(=O)C1
  ·, -12
Cc1cc2ncn(C(=O)CCCOc3ccccc3)c2cc1C
  0.3, 5
Cc1c(Br)c([N+](=O)[O-])nn1CC(=O)N1CCN(Cc2ccccc2)CC1
  -1.1, ·
CCCNC(=O)CCc1nc(-c2ccccc2Cl)no1
  ·, -1
O=C(O)c1cc2cccc(S(=O)(=O)N3CCCCCC3)c2cc1O
  0.0, 11
COc1cccc(C2=NOC(C(=O)Nc3cc(C)on3)C2)c1 (stereo unspecified)
  ·, 7
O/N=C/c1ccc(-c2ccc(F)cc2F)o1
  -0.8, ·
CS(=O)(=NS(=O)(=O)c1ccc(OC(F)(F)F)cc1)c1ccc(Cl)cc1 (stereo unspecified)
  4.2, ·
CCOC(=O)c1c(C)oc2c1c(C(c1ccccn1)N1CCN(C)CC1)c(O)c1ccccc12 (stereo unspecified)
  ·, 1
O=C(CSc1nc2ncccc2[nH]1)N1CCCC1
  -6.0, 6
Cc1cc(O)c2c(=O)c(-c3cscn3)c(C)oc2c1
  ·, -20
CC1CC(=O)c2cnc(Nc3ccccc3)nc2C1 (stereo unspecified)
  -0.3, 6
CCOC(=O)c1cnc2cc(-c3ccc(C)cc3)nn2c1C
  -1.6, 18
CC(=O)Nc1ccc(-n2cc(-c3ccccc3)[nH]c2=S)cc1
  ·, -4
CCc1cc(CC)c(NC(=O)C(C)(C)C)c(CC)c1
  -2.2, ·
O=C(Nc1cc(-c2ccccc2)[nH]n1)C1COc2ccccc2O1 (stereo unspecified)
  -2.7, ·
Nc1ccc(-c2ncc(-c3ccccc3)o2)cc1
  -0.8, 2
Cc1onc(-c2ccccc2)c1CNC(=O)Nc1ccccc1
  1.8, ·
COC(=O)c1ccc(CSc2ncnc3c2cnn3-c2ccc(C)cc2C)o1
  ·, -2
CC(CO)(CO)NC(=O)NC1CCCCC1
  -1.6, 7
Cc1nc(N)[nH]c(=O)c1Oc1cccc(C(F)(F)F)c1
  ·, -8
COC(=O)C1(c2ccc(OC)c(OC)c2)CCCC1
  5.6, 13
c1ccc(CN2CCN(Cc3ccccc3)C2c2ccc[nH]2)cc1
  1.6, -1
CC(=O)Nc1ccc(-c2cn3c(n2)SCC3)cc1
  3.2, ·
COc1ccc(C2C(C(=O)NCCCN3CCOCC3)c3ccccc3C(=O)N2c2ccc(OC)cc2)cc1 (stereo unspecified)
  ·, 12
Cc1ccc(S(=O)(=O)N/N=C/c2c(O)[nH]c(=O)[nH]c2=O)cc1
  ·, -7
COc1ccc(S(=O)(=O)N2CCC(NC(=O)c3ccccc3)CC2)cc1
  -4.3, -1
CCOC(=O)C1CCCN(S(=O)(=O)c2ccc(Cl)cc2)C1 (stereo unspecified)
  0.3, 4
Cc1oc(-n2c(C)ccc2C)c(C#N)c1C
  -1.7, 14
COc1ccc(CCN=C(C)c2ccc3ccccc3c2)cc1OC
  -0.1, ·
COc1cc(C)ccc1OCCn1cccc1/C=C1\C(=N)N2N=C(N3CCCC3)SC2=NC1=O
  ·, -9
CCNC(=S)N1CCC(NC(=O)c2ccccc2)CC1
  4.7, 3
CCN(C(=O)CSc1nc2cc(C(=O)OC)ccc2c(=O)n1CCN1CCOCC1)c1cccc(C)c1
  ·, 0
COc1ccc(/C=C\C(=O)NCc2ccc3[nH]c(C)cc3c2)cc1OC
  ·, 17
CCOC(=O)N1CCc2c(sc(N)c2C(=O)c2ccc(Cl)cc2)C1
  0.8, ·
Clc1ccc(CCNc2ncnc3sccc23)cc1
  -3.3, ·
O=C(Nc1ccccc1)C1CCCN1C1CCCCC1 (stereo unspecified)
  -2.2, 6
C(#Cc1ccccc1)CN1CCOCC1
  ·, 11
COC(=O)c1cc2c(ccc3ccccc32)oc1=O
  ·, 35
O=c1c2c3c(sc2[nH]c(=S)n1Cc1ccco1)CCCC3
  ·, -14
COc1ccccc1C(=O)NN1C(=O)/C(=C2/C(=O)N(CC(=O)O)c3ccccc32)SC1=S
  0.0, ·
Cn1ccnc1SCC(=O)NCc1ccccc1
  0.7, 18
CCOC(=O)c1ccc(COC(C)=O)o1
  -1.6, ·
O=C(Nc1ccc(F)cc1)c1cnccc1C(F)(F)F
  -1.2, ·
CC(C)CCN1CC(C)C(O)(c2ccccc2)CC1C (stereo unspecified)
  ·, -6
COc1ccc(CCNC(=O)c2cc(-c3ccccn3)nc3ccccc23)cc1
  -3.1, 26
Cc1ccc2[nH]c(-c3ccccc3)c(CN(C)C)c(=O)c2c1
  -0.8, 8
COc1ccccc1-c1ccc(SCC#N)nn1
  ·, 12
O=C1CC(c2cccc(Br)c2)C2=C(CCCC2=O)N1 (stereo unspecified)
  ·, 4
COc1ccc(CCNC(=O)c2ccccc2Br)cc1OC
  -0.7, ·
O=C(Cc1ncc[nH]1)c1ccccc1
  ·, 13
O=c1ncc(Oc2ccc(Cl)cc2Cl)c[nH]1
  0.7, ·
CCCCN(C)S(=O)(=O)c1ccc2oc(C(=O)O)c(C)c2c1
  -1.5, 0
CC(CC(=O)NCCc1ccccc1)n1cccn1 (stereo unspecified)
  ·, 7
Cc1ccc(Nc2cc(C(=O)NCCCN3CCOCC3)c3ccccc3n2)c(C)c1
  0.2, 4
Cc1cccc(C(=O)Nc2sc(C)c(C)c2C#N)c1
  2.0, -1
Cc1ccc2c(c1)OC(c1ccc(N(C)C)cc1)N2 (stereo unspecified)
  2.4, ·
Cc1ccc(S(N)(=O)=O)cc1-c1nnc2c3ccccc3c(C)nn12
  ·, 3

Next entries follow:
Every second line gives: MgrA-DNA mod, S aureus helic
COc1ccc(C(=O)N2CCN(S(=O)(=O)c3ccccc3)CC2)cc1OC
  0.6, -20
CCOc1ccccc1OCC(=O)Nc1ccc(S(=O)(=O)Nc2nc(C)cc(C)n2)cc1
  ·, -4
CC(C)NC(=O)N1CCc2sccc2C1C (stereo unspecified)
  0.2, ·
O=C(Nc1ccccc1N1CCOCC1)c1cc(=O)[nH]c2ccccc12
  ·, -12
Cc1cc(NC(=O)c2ccc3nonc3c2)on1
  -0.9, ·
Cc1ccc(S(=O)(=O)CC#N)cc1
  -1.1, ·
COCC(=O)N1CCC(c2nc3ccccc3[nH]2)CC1
  -2.1, 6
N#CCS(=O)(=O)c1cc(Cl)ccc1Cl
  -0.2, -12
O=C(CN1C(=O)/C(=C\c2ccccc2)SC1=S)Nc1ccc(F)c(Cl)c1
  -0.2, ·
Cc1cc(C)n(-c2cccc(Cl)c2C#N)n1
  ·, -2
CCC(Sc1nnc2c3ccccc3n(C(C)C)c2n1)C(=O)Nc1nc2ccccc2s1 (stereo unspecified)
  -0.3, 12
CC(C)(C)C(=O)CC(Nc1ccccc1)c1ccc(Cl)cc1 (stereo unspecified)
  -0.8, ·
N#Cc1c2c(c(N3CCCCC3)n3c1nc1ccccc13)CCCC2
  ·, -84
N#Cc1c2c(c(N3CCCC3)[nH]c1=S)CCCC2
  10, -6
N#Cc1cc2c(nc1SCc1ccccc1Cl)CCCC2=O
  ·, 8
Cc1ccc(CN(C(=O)C(C)Oc2ccc(Cl)c(C)c2)C2CCS(=O)(=O)C2)o1 (stereo unspecified)
  ·, -13
Cc1cccc(C(=O)NCCc2ccc(S(N)(=O)=O)cc2)c1
  ·, 3

An excerpt from above in order of their number in MgrA-DNA mod, low to high.
structure,MgrA-DNA mod
c1coc(CNCc2cccc3ccccc23)c1,-5.9
CC(C)NC(=O)N1CCc2sccc2C1C (stereo unspecified),0.2
CCc1ccc(NC(=O)CN(C)S(=O)(=O)c2ccc3nc(-c4ccccc4)[nH]c3c2)cc1,1.3

Screens: PubChem BioAssay, ICCB-Longwood Screening Facility, Harvard Medical School
